Assay outcomes: PubChem BioAssay, National Center for Advancing Translational Sciences (NCATS)
Sfp inh = qHTS Assay for Inhibitors of Bacillus subtilis Sfp phosphopantetheinyl transferase (PPTase). 4'-phosphopantetheinyl transferase ffp (Bacillus subtilis), Q9F4F7. Biochemical Sfp PPTase activity, qHTS. Potency, µM, without a hit: max response, negative = inhibition, hits mostly inhibitors. 3.5% of 310,000 active. AID 1490, 2009; active = well fitted inhibition curve with a large enough effect; inconclusive = small, poorly fitted or top-dose-only effect, or another doubt; inactive = no such curve, though single readings can be large or run the other way;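 also: the enzyme is Sfp with the accession as filed and its product quenches rhodamine fluorescence; potency is read from the fitted curve at half-maximal effect; 0% = enzyme reaction without inhibitor and -100% = no enzyme wells; top concentration of the series not given in the record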
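With Hepes-Na pH 7.6 buffer containing 10 mM MgCl2, Sfp (15 nM) modified BHQ-2-YbbR (12.5 uM) using rhodamine-CoA (5 uM). Two reads 30 minutes apart at 525/598 nm yielded each well's rate.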
TRPML1 blocker = qHTS for Inhibitors of the Human Mucolipin Transient Receptor Potential 1 (TRPML1); 0.02% of 390,000 active; activity change, negative = inhibition, % (concentration not given with the values); TRPML1-inducible cells, Ca2+ dye fluorescence, FDSS; stronger effect = lower value; inhibition of EC80 agonist-evoked calcium signal; AID 624415, 2012; Mucolipin-1 (Homo sapiens), Q9GZU1; in the data active means activity change below about -50%; inconclusive means about -30% to -50%; inactive means above about -30%;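 also: stimulus is agonist 54-4 at its EC80 concentration; % is scaled to controls: 0 for no effect and ±100 for the full control effect; compound concentration not given in the record; the text of the record puts the active cut at -80%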
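Calcium fluorescence in TRPML1-DL cells induced overnight with Tet: a 110 s read after compound pin addition, then a 110 s antagonist read after challenge with 54-4 at 4 uM final (EC80).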
PINK1 modulator = A Quantitative High throughput Screen to Identify Chemical Modulators of PINK1 Expression. PINK1 immunofluorescence, high-content cytometry, 24 h. Potency, µM (top dose mostly 76.6 µM), for the others: at the highest dose activation (PINK1 increase), actives largely listed as activators. 0.2% of 410,000 active; active = well fitted activation curve with a large enough effect; inconclusive = small, poorly fitted or top-dose-only effect; inactive = flat fitted curve, though single readings scatter; cell line not stated here;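 also: potency is read from the fitted curve at half-maximal effect; % of control where 0% means no effect; nearly all actives have a fitted effect of over 65% in size; a mitochondrial uncoupler was the plate control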
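Stable cell line, 250 cells/well, 12 h attachment; compounds pinned at 5 concentrations, 24 h; CCCP control. Fixed with nuclear dye, primary antibodies 12 h at 10 degrees C, secondary plus cell stain; laser-scanning cytometer read.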
TRPML1 ag = qHTS for Agonists of the Human Mucolipin Transient Receptor Potential 1 (TRPML1); Mucolipin-1 (Homo sapiens), Q9GZU1; TRPML1-expressing cells, Ca2+ dye fluorescence, FDSS; host cell line not named in the record; reference of the full effect not given here; activation, % (no concentration beside the values); 0.12% of 410,000 active; in the data active = activation above about 50%; inconclusive = about 30% to 50%; inactive = below about 30%; also: 0% is about no effect; the text of the record puts the active cut at 80%
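Calcium fluorescence on an FDSS kinetic reader gave the read-out. Tet-induced TRPML1-DL cells were plated overnight, dye-loaded (Ca8 with quencher, 45-90 min, room temperature, dark), then read 110 s after compound addition, and again 110 s after 4uM final 54-4 (EC80).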
TRPV1 potentiator = HTS Assay for Compounds that Act as Potentiators of the Vanilloid Receptor 1. Transient receptor potential cation channel subfamily V member 1 (Homo sapiens), Q8NER1. TRPV1-expressing cells, Fluo-8 calcium influx, capsaicin EC20 potentiation; host cell line not named in the record; control for the full effect not named in the record. potentiation, % at 8.33 µM. 0.02% of 320,000 active; active means potentiation above 80%; inconclusive means 30% to 80%; inactive means below 30%; also: 0% is about no effect
Target sequence (Q8NER1 whole entry, looked up): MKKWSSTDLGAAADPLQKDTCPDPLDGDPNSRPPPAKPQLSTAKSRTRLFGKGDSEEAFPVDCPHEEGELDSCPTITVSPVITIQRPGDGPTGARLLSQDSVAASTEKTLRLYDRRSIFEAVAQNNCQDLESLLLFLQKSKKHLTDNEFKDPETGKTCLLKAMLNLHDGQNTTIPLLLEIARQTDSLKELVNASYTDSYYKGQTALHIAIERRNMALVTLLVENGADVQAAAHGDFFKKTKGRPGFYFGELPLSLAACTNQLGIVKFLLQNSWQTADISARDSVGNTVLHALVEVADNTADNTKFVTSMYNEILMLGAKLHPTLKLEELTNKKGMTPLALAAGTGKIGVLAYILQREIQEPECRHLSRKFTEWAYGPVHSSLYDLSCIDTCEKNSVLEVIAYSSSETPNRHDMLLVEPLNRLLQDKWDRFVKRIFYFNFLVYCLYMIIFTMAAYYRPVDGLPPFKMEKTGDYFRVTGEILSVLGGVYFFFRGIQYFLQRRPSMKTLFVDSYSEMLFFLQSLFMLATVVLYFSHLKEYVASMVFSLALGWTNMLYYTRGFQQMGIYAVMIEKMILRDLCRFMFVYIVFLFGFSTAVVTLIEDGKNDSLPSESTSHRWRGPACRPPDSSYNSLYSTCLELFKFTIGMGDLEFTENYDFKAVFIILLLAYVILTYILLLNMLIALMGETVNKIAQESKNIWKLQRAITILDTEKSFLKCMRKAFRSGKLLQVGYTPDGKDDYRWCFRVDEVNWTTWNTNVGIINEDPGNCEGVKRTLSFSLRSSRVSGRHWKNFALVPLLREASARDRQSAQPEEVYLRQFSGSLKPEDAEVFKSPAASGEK
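TRPV1-expressing cells were cultured overnight at 35.5C and loaded with Fluo-8 calcium dye for 40 to 90 min at room temperature. After a 10 s baseline, compound was added and calcium influx was read kinetically for 3 min (ex 480/em 520 nm).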
Menin MLL FP FL = qHTS Assay for Inhibitors Targeting the Menin-MLL Interaction in MLL Related Leukemias: Competition With Fluorescein Labeled MLL-derived Peptide; Fluorescence polarization, fluorescein-MLL peptide displacement from menin; FP activity change, % at 61.4 µM; 290,000 tested, under 10 active; AID 1766, 2009; inconclusive = falling polarisation curve, or a change in total fluorescence; inactive = total fluorescence flat and polarisation flat or rising; no compound was filed as active; the % refers to the polarisation; negative = inhibition;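 also: % of control where 0% means no effect; inhibitors lower the polarisation; unlabelled MLL peptide was the positive control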
ClpP mod = qHTS Assay for Activators of ClpP | 1.9% of 340,000 active | Potency, µM (doses to about 57.5 µM), without a hit: at the highest dose activity change, negative = active | ATP-dependent Clp protease proteolytic subunit (Bacillus subtilis (strain 168)), P80244 | purified B. subtilis ClpP, FRET peptide cleavage, 20 min; active = well fitted falling curve with a large enough effect; inconclusive = small, poorly fitted or top-dose-only effect; inactive = no such curve, though single readings can be large or run the other way; also: potency is read from the fitted curve at half-maximal effect; the source files actives as falling curves though it sought activators and does not explain the sign; nearly all actives have a fitted effect of over 65% in size; many hits overshoot -100%
Target sequence (P80244 whole entry, looked up): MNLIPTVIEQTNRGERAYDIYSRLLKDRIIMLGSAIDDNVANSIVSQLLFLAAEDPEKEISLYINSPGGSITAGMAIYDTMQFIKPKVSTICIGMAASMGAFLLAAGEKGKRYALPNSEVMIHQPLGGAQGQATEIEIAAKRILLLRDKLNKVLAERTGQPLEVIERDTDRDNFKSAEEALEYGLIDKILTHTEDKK
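ClpP 10 microg/mL final, pH 8 Tris/KCl buffer with BSA, glycerol, Tween-20; compound pinned in; FRET-FV substrate; RT 20 min; Ex320/Em430; ΔFRET vs ADEP 5.8 microM, DMSO, no enzyme.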
* marks the source's active call; other numbers are inactive results; [ ] = another dose, or the depositor's remark. An unsorted share of the library, and some 4.4% of all compounds hit somewhere here.

How did CC1(C)Cc2c(C#N)c(SCCC#N)nc(N3CCOCC3)c2CS1 do in these assays?
Sfp inh: 16%; TRPML1 blocker: -8; PINK1 modulator: -2.1%; TRPML1 ag: -0.4; TRPV1 potentiator: -6; Menin MLL FP FL: 4.4; ClpP mod: -2.8%

Results for COc1ccccc1C(CNC(=O)COc1ccccc1C)N1CCCC1 (stereo not drawn) ?
TRPML1 blocker: -15; PINK1 modulator: 0.0%; TRPML1 ag: 0.9; TRPV1 potentiator: -1; ClpP mod: -2.4%

Results for CCOC(=O)C1=C(C)N=C2c3ccccc3C(=O)C2C1c1ccc(Br)cc1 (stereo not drawn) ?
Sfp inh: 10%; TRPV1 potentiator: -4; Menin MLL FP FL: 1.7

Results for COC(=O)c1ccc(C(=O)OC)c(NC(=S)N2CCOCC2)c1 ?
Sfp inh: -2%; TRPML1 blocker: inconclusive; PINK1 modulator: 0.8%; TRPML1 ag: 0.0; TRPV1 potentiator: -1; Menin MLL FP FL: 2.2; ClpP mod: 32µM*

Results for CC(C)(C)OC(=O)N1CCC(c2c(C(=O)N3CCN(c4ccccn4)CC3)cnn2-c2ccccc2)CC1 ?
TRPML1 blocker: -2; PINK1 modulator: -0.6%; TRPML1 ag: 0.1; ClpP mod: -4.6%

Results for CN1CCN(CCCNC(=O)CCC(=O)N2CCOc3ccccc32)CC1 ?
Sfp inh: 15%; TRPML1 blocker: 3; PINK1 modulator: -0.9%; TRPML1 ag: -0.7; TRPV1 potentiator: -9; Menin MLL FP FL: 0.6; ClpP mod: -0.4%

How did Cc1[nH]c(-c2ccc(F)cc2)cc1C(=O)N1CCN(c2cccc(Cl)c2)CC1 do in these assays?
Sfp inh: 10%; TRPML1 blocker: 3; PINK1 modulator: 21%; TRPML1 ag: 1.2; TRPV1 potentiator: 8; Menin MLL FP FL: -2.4

What do the screens show for `OC(CN1CCCCC1)Cn1c2ccccc2c2cc(Br)ccc21` (stereo not drawn)?
Sfp inh: -9%; TRPML1 blocker: -1; PINK1 modulator: -2.8%; TRPML1 ag: 0.7; TRPV1 potentiator: -4; Menin MLL FP FL: -7.9

Results for CN(C)S(=O)(=O)c1ccc(Cl)c(C(=O)Nc2ccccc2[N+](=O)[O-])c1 ?
Sfp inh: 5%; TRPML1 blocker: -8; PINK1 modulator: 1.1%; TRPML1 ag: 1.1; TRPV1 potentiator: 3; Menin MLL FP FL: 3.1; ClpP mod: -2.0%

What do the screens show for `Cc1cccc(N2C(=O)c3ccccc3C2=O)n1`?
Sfp inh: 1%; TRPML1 blocker: -10; PINK1 modulator: 0.4%; TRPML1 ag: -0.7; TRPV1 potentiator: 7; Menin MLL FP FL: 8.4; ClpP mod: -1.6%

Results for O=C(NC1CC1)c1cccc(NC(=O)C2CCCC2)c1 ?
TRPML1 blocker: -13; PINK1 modulator: -0.4%; TRPML1 ag: 0.3; ClpP mod: 0.3%

How did Cc1cc(C(=O)NNC(=O)c2ccc(Cl)cc2)c2ccccc2n1 do in these assays?
TRPML1 blocker: -28; PINK1 modulator: 1.3%; TRPML1 ag: 2.0; TRPV1 potentiator: -5; ClpP mod: -3.4%

Results for c1cc(NC2CC2)nc(-c2ccoc2)n1 ?
Sfp inh: 79µM*; PINK1 modulator: 1.0%; Menin MLL FP FL: inconclusive

What do the screens show for `Cn1c(CNC(=O)CNS(=O)(=O)c2ccc(Cl)cc2)cc(=O)n(C)c1=O`?
Sfp inh: 21%; TRPML1 blocker: -4; PINK1 modulator: -0.5%; TRPML1 ag: 0.4; TRPV1 potentiator: -3; Menin MLL FP FL: -0.4; ClpP mod: 0.7%

How did CC(C)Cc1oc(C(=O)O)cc1CN1CCOCC1 do in these assays?
Sfp inh: -3%; TRPML1 blocker: 4; PINK1 modulator: 0.7%; TRPML1 ag: 1.2; TRPV1 potentiator: 1; Menin MLL FP FL: -2.1

What do the screens show for `O=C(NCc1cccc(C(F)(F)F)c1)c1cccc2c1C(=O)c1ccc(N3CCC(Cc4ccccc4)CC3)cc1S2(=O)=O`?
TRPML1 blocker: 2; PINK1 modulator: 1.5%; TRPML1 ag: 24; ClpP mod: 0.9%

How did COc1ccc(NC(=O)C2CC(c3ccc(Cl)cc3)=NO2)cc1OC (stereo not drawn) do in these assays?
Sfp inh: -1%; TRPML1 blocker: 7; PINK1 modulator: 0.2%; TRPML1 ag: -0.8; TRPV1 potentiator: -15; Menin MLL FP FL: -6.0

What do the screens show for `CCN(CC)S(=O)(=O)c1ccc(N2CC(C(=O)N3CCOCC3)CC2=O)cc1` (stereo not drawn)?
TRPML1 blocker: -5; PINK1 modulator: 1.2%; TRPML1 ag: -0.6; TRPV1 potentiator: 6; ClpP mod: -0.4%

What do the screens show for `O=C(N/C(=C\c1ccccc1Cl)C(=O)N1CCOCC1)c1ccc([N+](=O)[O-])cc1`?
Sfp inh: -4%; TRPML1 blocker: 3; PINK1 modulator: -0.4%; TRPML1 ag: -0.2; TRPV1 potentiator: -5; Menin MLL FP FL: 1.1

How did CN(Cc1nc(-c2ccc(Cl)cc2)no1)S(=O)(=O)c1ccccc1 do in these assays?
TRPML1 blocker: 70; PINK1 modulator: 1.7%; TRPML1 ag: 5.3; ClpP mod: 0.5%

Results for Cc1cc(C)c2c(=O)cc(C(=O)Nc3ccc(S(=O)(=O)Nc4onc(C)c4C)cc3)oc2c1 ?
TRPML1 blocker: 9; PINK1 modulator: 4.1%; TRPML1 ag: -0.7; ClpP mod: -0.8%

How did Cn1cc(C(C[N+](=O)[O-])c2ccccc2)c2ccccc21 (stereo not drawn) do in these assays?
Sfp inh: -2%; PINK1 modulator: 5.2%; TRPV1 potentiator: -15; Menin MLL FP FL: -1.3; ClpP mod: 0.8%

How did COc1cc(C(=O)NCCOc2cccc3cccnc23)cc(OC)c1OC do in these assays?
Sfp inh: 14%; TRPML1 blocker: -7; PINK1 modulator: 0.3%; TRPML1 ag: -0.2; TRPV1 potentiator: inconclusive; Menin MLL FP FL: -2.0

What do the screens show for `O=C1/C(=C\c2ccc3c(c2)OCO3)CCC/C1=C/c1ccc2c(c1)OCO2`?
Sfp inh: -27%; TRPML1 blocker: 39; PINK1 modulator: 5.6%; TRPML1 ag: 1.1; TRPV1 potentiator: 29; Menin MLL FP FL: inconclusive; ClpP mod: 1.5%

What do the screens show for `Cc1oc(-c2ccccc2Cl)nc1CSCC(=O)NC1CC1`?
Sfp inh: 16%; TRPML1 blocker: 25; PINK1 modulator: 2.2%[38.3 µM]; TRPML1 ag: -0.4; TRPV1 potentiator: -15; Menin MLL FP FL: 0.4; ClpP mod: -3.0%

Results for COC(=O)c1cccc(CSc2nc(-c3ccccc3)c(C#N)c(=O)[nH]2)c1 ?
Sfp inh: 1%; TRPML1 blocker: 14; PINK1 modulator: -2.2%; TRPML1 ag: 3.7; TRPV1 potentiator: -13; Menin MLL FP FL: inconclusive; ClpP mod: -6.2%

How did COc1ccc(NC(=O)CSc2oc(-c3cccs3)nc2S(=O)(=O)c2ccc(Br)cc2)c(OC)c1 do in these assays?
TRPML1 blocker: -18; PINK1 modulator: -0.9%; TRPML1 ag: -0.8; ClpP mod: -0.8%

What do the screens show for `COc1ccc(CCN2CC(C(=O)NCCc3cn[nH]c3)CCC2=O)cc1` (stereo not drawn)?
Sfp inh: 8%; TRPML1 blocker: 7; PINK1 modulator: 0.3%; TRPML1 ag: 0.1; TRPV1 potentiator: 8; ClpP mod: -2.4%

What do the screens show for `Cc1cc(Nc2ccc(F)cc2F)n2ncnc2n1`?
Sfp inh: 2%; TRPML1 blocker: 1; PINK1 modulator: 0.9%; TRPML1 ag: 0.1; TRPV1 potentiator: -5; Menin MLL FP FL: 0.4; ClpP mod: 1.7%

Results for CCC(O)(CC)C(=O)NN(C(=O)CCl)c1ccccc1 ?
Sfp inh: 11%; TRPML1 blocker: -7; PINK1 modulator: 5.9%; TRPML1 ag: 1.8; TRPV1 potentiator: -5; Menin MLL FP FL: 6.0; ClpP mod: 1.1%

How did CC(=O)Nc1cccc(C(=O)Nc2ccccc2N2CCOCC2)c1 do in these assays?
Sfp inh: -2%; TRPML1 blocker: 30; PINK1 modulator: 13%[38.3 µM]; TRPML1 ag: -0.4; TRPV1 potentiator: -7; Menin MLL FP FL: 4.8; ClpP mod: 0.6%

Results for O=C(CN(Cc1ccccc1)S(=O)(=O)c1ccc(Cl)cc1)NCC1CCCO1 (stereo not drawn) ?
Sfp inh: 3%; TRPML1 blocker: -7; PINK1 modulator: 1.0%; TRPML1 ag: -0.3; TRPV1 potentiator: -26; Menin MLL FP FL: 0.2

What do the screens show for `COc1ccc(CNc2nn[nH]n2)cc1OC`?
Sfp inh: 0%; TRPML1 blocker: -1; PINK1 modulator: -1.0%[38.3 µM]; TRPML1 ag: -0.4; TRPV1 potentiator: 2; Menin MLL FP FL: 1.6; ClpP mod: 0.6%

Three successive compounds out of the list so far:
How did CC(=O)Nc1cccc(C(=O)Nc2ccccc2N2CCOCC2)c1 do in these assays?
Sfp inh: -2%; TRPML1 blocker: 30; PINK1 modulator: 13%[38.3 µM]; TRPML1 ag: -0.4; TRPV1 potentiator: -7; Menin MLL FP FL: 4.8; ClpP mod: 0.6%

Results for O=C(CN(Cc1ccccc1)S(=O)(=O)c1ccc(Cl)cc1)NCC1CCCO1 (stereo not drawn) ?
Sfp inh: 3%; TRPML1 blocker: -7; PINK1 modulator: 1.0%; TRPML1 ag: -0.3; TRPV1 potentiator: -26; Menin MLL FP FL: 0.2

What do the screens show for `COc1ccc(CNc2nn[nH]n2)cc1OC`?
Sfp inh: 0%; TRPML1 blocker: -1; PINK1 modulator: -1.0%[38.3 µM]; TRPML1 ag: -0.4; TRPV1 potentiator: 2; Menin MLL FP FL: 1.6; ClpP mod: 0.6%
